Rango release inh: inhibitors of RanGTP-induced Rango-importin beta complex dissociation | 340,000 tested, 0.071% active | O95149+P62826 | Biochemical FRET Rango-importin beta, RanGTP-induced dissociation | Potency, µM (top dose mostly 46.1 µM), without a hit: top-dose activity change, negative = inhibition; active means falling FRET ratio curve, often poorly fitted, with flat reads before Ran was added; inconclusive means other falling curves, or compound fluorescence or quenching; inactive means flat or rising ratio curve;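 also: potency is read from the fitted curve at half-maximal effect; % of control where 0% means no effect; nearly all actives have a fitted effect of over 45% in size; -100% = wells without RanGTP and RCC1; the record marks most hits as doubtful in a second field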
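Recombinant Rango FRET biosensor (EYFP–snurportin 1 IBB–cerulean CFP10) at 0.1 uM premixed with 0.25 uM importin beta in PBS, 1 mM DTT, 0.02% Tween-20, 0.1% BSA. Compound added 5 min; RanGTP-RCC1 (0.6 uM Ran, 2 mM GTP, 0.2 uM RCC1) then triggers release, read at 45 min.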
Rango complex inh: inhibitors of Rango-importin beta complex formation. Rango CFP/YFP FRET sensor + importin beta, 45 min. Potency, µM (doses to about 92.2 µM), for inactives: at the highest dose inhibition of complex formation. 340,000 tested, 0.031% active. AID 540263; active = rising FRET ratio curve, often small or poorly fitted; inconclusive = mostly compound fluorescence or quenching in the first reads; inactive = flat curves in all reads;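 also: potency is read from the fitted curve at half-maximal effect; 0% = DMSO wells and 100% = buffer wells lacking importin beta; nearly all actives have a fitted effect of over 15% in size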
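FRET biosensor Rango (snurportin 1 IBB between N-terminal EYFP and C-terminal Cerulean), 50 nM in PBS/1 mM DTT/0.02% Tween-20/0.1% BSA, preincubated 5 min RT with compound; 0.125 microM importin beta added, 45 min RT, CFP/YFP FRET ratio read.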
GLA inh pH 4.5: inhibitors of human alpha-galactosidase A at pH 4.5 | P06280 | purified enzyme, 4-MU-alpha-Gal fluorescence, pH 4.5 | activity change, negative = inhibition, % at 105 µM | 230,000 tested, under 10 active | AID 1467; inconclusive = small, poorly fitted or top-dose-only inhibition, or a rising curve; inactive = flat fitted curve, though single readings scatter; no compound was filed as active;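 also: 0% = full activity with enzyme and -100% = basal without enzyme; dose as in the result columns while the protocol names 77 µM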
Target sequence (P06280 whole entry, looked up): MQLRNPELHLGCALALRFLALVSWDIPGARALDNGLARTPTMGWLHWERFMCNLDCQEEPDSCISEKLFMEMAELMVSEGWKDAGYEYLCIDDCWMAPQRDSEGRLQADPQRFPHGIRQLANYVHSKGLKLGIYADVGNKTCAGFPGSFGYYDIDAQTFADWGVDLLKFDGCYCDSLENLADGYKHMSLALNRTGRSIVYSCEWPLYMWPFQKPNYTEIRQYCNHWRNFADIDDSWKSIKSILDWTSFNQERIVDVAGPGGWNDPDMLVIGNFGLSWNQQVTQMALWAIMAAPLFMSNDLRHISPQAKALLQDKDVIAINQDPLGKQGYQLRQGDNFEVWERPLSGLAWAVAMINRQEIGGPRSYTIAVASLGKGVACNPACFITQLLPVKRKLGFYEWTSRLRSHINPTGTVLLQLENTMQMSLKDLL
miR-21 reporter: raises the signal of a miR-21 reporter. HeLa miR-21 FLuc reporter, luciferase, 48 h. Potency, µM (series often up to 38.3 µM), without a hit: at the highest dose reporter change, positive = more light. 340,000 tested, under 10 active; active = well fitted rising curve with a large enough effect; inconclusive = small, poorly fitted or top-dose-only effect; inactive = no such curve, though single readings can be large or run the other way;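 also: % of control where 0% means no effect; miR-21 action dims this reporter so a rising signal means less miR-21 action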
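Compounds were titrated across several concentrations (up to approximately 40 uM) and incubated 48 hours with HeLa miR-21-FLuc reporter cells (miR-21 target sequence downstream of FLuc, endogenous miR-21). Readout was firefly luciferase luminescence after lytic detection reagent.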
Starred values were filed as active, the others as inactive; u = inconclusive; x = no result given; & = joins results of further samples.

Rango release inh | Rango complex inh | GLA inh pH 4.5 | miR-21 reporter | SMILES
14% | 2.5% | x | 3% | CCC(=O)N1CCc2cc(S(=O)(=O)NCCC(=O)N3CCN(c4cccc(OC)c4)CC3)ccc21
5% | 3.3% | 2 | 21% | CCC/C=N/NC(=O)c1[nH]c2c([N+](=O)[O-])cccc2c1C
-7% | 0.7% | x | -2% | CC1CN(/C=C/C=O)C(C)CC1OC(=O)c1ccccc1 (stereo unspecified)
-6% | -4.3% | -10 | 3% | Oc1ccc(N=Nc2c(O)ccc3ccccc23)cc1
0% | -4.1% | 5 | -9% | O=C(OCCN1C(=O)c2ccccc2C1=O)c1cccs1
u | 5.4% | x | 3% | Cc1cc(C)n2nc(CNS(=O)(=O)c3ccc([N+](=O)[O-])cc3)nc2n1
0% | -6.1% | -12 | 21% | CCc1c(C)nc2ncnn2c1NCCc1ccc(Cl)cc1
-11% | u | -1 | -43% | Cc1ccc(NC(=O)Cn2nnc3ccccc3c2=O)cc1
9% | 0.3% | 3 | 22% | C#Cc1ccc([C@@H]2C=C(C(=O)N3CCN(Cc4ccc5c(c4)OCO5)CC3)O[C@H](OCCCCO)C2)cc1
-23% | 2.2% | 0 | -1% | COc1ccc(CC(NC(C)=O)C(=O)N2CCN(C(=O)Nc3cccc(F)c3)CC2)cc1OC (stereo unspecified)
-7% | 2.4% | -3 | -7% | COc1ccc(Cc2nnc(NC(=O)Cc3cccs3)s2)cc1
-1% | -1.5% | x | x | CCOc1cc(C(=O)N(Cc2ccccc2)c2ccc(C)cc2)ccc1OCC(=O)N1CCOCC1
-5% | 0.4% | -23 | 1% | CCOc1ccccc1N1CCN(C(=O)c2csc(C)c2CC)CC1
29% | 3.5% | x | -1% | O=C(O)c1ccc(S(=O)(=O)NC2CCCCCC2)cc1
17% | -1.7% | x | x | CCN(C(=O)CSc1nnc(-c2ccco2)n1C)c1c(N)n(Cc2ccccc2)c(=O)[nH]c1=O
8% | -1.0% | x | x | Cc1ccc(NC(=O)CN(C)C(=O)CNC(=O)c2ccc3c(c2)OCO3)cc1
-5% | 2.7% | x | x | COc1cc(C(=O)NCC(c2ccco2)N2CCCC2)ccc1OCc1ccc(Cl)cc1Cl (stereo unspecified)
-7% | -2.4% | 7 | -24% | CCC(C)c1ccc(-c2cc(C(=O)OCC(=O)Nc3cc(C)on3)c3ccccc3n2)cc1 (stereo unspecified)
-9% | 2.4% | 1 | -4% | CCC(=O)N1CCCc2cc(S(=O)(=O)NCc3cccs3)ccc21
1% | 0.9% | 2 | 2% | CN(C)CCNC(=O)C(C(=O)c1ccccc1)n1ccccc1=O (stereo unspecified)
-8% | -0.9% | -9 | -17% | Cc1ccc(-c2nc3ccccc3c(=O)n2CCCN2CCOCC2)cc1
-26% | u | 6 | -29% | Cc1ncc(CC(=O)n2cc(C(=O)c3cc(F)ccc3O)cn2)s1
3% | 6.3% | -6 | -14% | Fc1cccc(CN2CCN(c3ncccn3)CC2)c1
-2% | 0.1% | x | -1% | COc1sc(SC)cc1/C=N/NC(=O)c1ccncc1
-5% | 5.8% | 6&9 | 3% | NC(=O)c1ccccc1O
-28% | -13% | u | -31% | N#Cc1c(Cl)nsc1NN
16% | u | 10 | -2% | CC(Sc1ccc(Br)cc1)C(N)=O (stereo unspecified)
-3% | -0.8% | -2 | -9% | COc1cccc(CN(C)c2nc(-c3cccs3)nc3ccccc23)c1
15% | 0.8% | x | x | CCOc1ccccc1N1CC(C(=O)N(Cc2nnc(-c3ccccc3Cl)o2)C2CC2)CC1=O (stereo unspecified)
1% | 0.7% | x | 2% | C[C@H](NC(=O)C1CC(=O)N(c2ccc3c(c2)OCCO3)C1)C(=O)N1CCC(C(=O)O)CC1 (stereo partly specified)

Looked up by compound from above (two):
Rango release inh | Rango complex inh | GLA inh pH 4.5 | miR-21 reporter | SMILES
-11% | u | -1 | -43% | Cc1ccc(NC(=O)Cn2nnc3ccccc3c2=O)cc1
-8% | -0.9% | -9 | -17% | Cc1ccc(-c2nc3ccccc3c(=O)n2CCCN2CCOCC2)cc1

Molecules listed so far containing a nitro group on carbon, in the order listed:
Rango release inh | Rango complex inh | GLA inh pH 4.5 | miR-21 reporter | SMILES
5% | 3.3% | 2 | 21% | CCC/C=N/NC(=O)c1[nH]c2c([N+](=O)[O-])cccc2c1C
u | 5.4% | x | 3% | Cc1cc(C)n2nc(CNS(=O)(=O)c3ccc([N+](=O)[O-])cc3)nc2n1

More records:
Rango release inh | Rango complex inh | GLA inh pH 4.5 | miR-21 reporter | SMILES
6% | 4.4% | x | x | O=C(CCCCl)N1CCc2[nH]c3ccccc3c2C1
2% | 0.2% | x | 6% | O=C(CSc1n[nH]c(-c2ccncc2)n1)Nc1ccc(Br)cc1
-2% | -1.2% | x | x | O=C(NC1CC1)c1cccc(NC(=O)C2CCC2)c1
-3% | 1.0% | 8 | -3% | Cc1cc(NC(=O)CSc2nc3cc(Cl)ccc3c(=O)n2Cc2ccco2)no1
-6% | 0.9% | 6 | -2% | Cc1ccc(-n2nc(C)c(=O)c(-c3ccccc3)c2NC(=O)C(C)C)cc1
3% | 0.1% | 4 | 3% | COc1ccc(C(=O)COC(=O)C2CCC(=O)N2)cc1 (stereo unspecified)
8% | 0.7% | 1 | -49% | O=C(NCCC1=CCCCC1)C(=O)c1c[nH]c2ccccc12
9% | -3.8% | x | x | CCCCn1c(N)c(N(CCOC)C(=O)COC(=O)COc2c(C)cccc2C)c(=O)[nH]c1=O
0% | -4.2% | -1 | -3% | CCCNC(=O)COC(=O)CCC(=O)c1cccs1
1% | -0.4% | 2 | -3% | C/C(=C1/SC(N2CCOCC2)=NC1=O)c1ccc(Br)cc1
-4% | 0.7% | -9 | -1% | O=C(NN1C(=O)CSC1=S)C(=O)NN1C(=O)CSC1=S
-7% | 1.0% | -5 | -1% | Cc1ccc2nc(SCC(=O)N3c4ccccc4CC3C)c(C)cc2c1 (stereo unspecified)
-6% | 0.6% | x | 2% | CC(NC(=O)c1ccco1)C(=O)NC(C)c1cc(F)c(Cl)cc1Cl (stereo unspecified)
11% | -1.6% | -7 | 2% | COc1ccc(OC)c(NC(=O)N[C@H](Cc2ccccc2)C(=O)NN)c1
-7% | -0.5% | x | x | CC(C)(C)OC(=O)N1CCC(C(=O)Nc2cccc(C(=O)NCCCCc3ccccc3)c2)CC1
0% | -1.5% | 2 | -5% | CC(C)N(Cc1nc(-c2ccccc2)no1)C(=O)C(C)(C)C
-4% | -1.5% | x | x | COc1ccc(OC)c(S(=O)(=O)Nc2c(C)nn(C)c2C)c1
-8% | -0.1% | -3 | x | COc1cc2c(c(OC)c1OC)C(c1ccccc1C)CC(=O)O2 (stereo unspecified)
-3% | 1.4% | 1 | 0% | NC(=O)CSc1nnc(-c2cnccn2)n1Cc1ccco1
-5% | -4.0% | 3 | -2% | Cc1c(S(=O)(=O)N2CCN(c3cccc(C(F)(F)F)c3)CC2)c(=O)n(C)c(=O)n1C
-14% | -0.6% | x | -26% | COC(=O)c1ccc(COc2ccc(Cl)cc2)o1
17% | 0.7% | x | x | CCOc1ccc(CN(C)CC(=O)Nc2ccccc2C(=O)NC2CC2)cc1
3% | -0.7% | -2 | 0% | COC(=O)c1sccc1NC(=O)Nc1cccc(Cl)c1Cl
-3% | 1.5% | -3 | -12% | Cc1nc2ccccc2cc1OCc1ccccc1
2% | -0.7% | -2 | -9% | O=C(c1cccs1)N1CCN=C1SCc1ccc(F)cc1
0% | -1.4% | 4 | -11% | CCC(Cc1ccccc1)NC(=O)C1CCC(CNc2c(N3CCCC3)c(=O)c2=O)CC1 (stereo unspecified)
-3% | -4.5% | 2 | -1% | CC(N=C1NS(=O)(=O)c2ccccc21)C(=O)NCc1ccc2c(c1)OCO2 (stereo unspecified)
11% | -4.4% | 5 | -11% | C=CCOc1c(Cl)cc(/C=N/O)cc1OC
-23% | u | -6 | 25% | CC1=C(C(=O)Nc2ccccc2F)C(c2ccsc2)C2=C(CC(C)(C)CC2=O)N1 (stereo unspecified)
-5% | -1.8% | 6 | -19% | O=C(NCc1ccc(Cl)cc1)c1cc(-c2cccs2)on1

Compound profiles (already shown).
COc1cc2c(c(OC)c1OC)C(c1ccccc1C)CC(=O)O2 (stereo unspecified) as listed: Rango release inh: -8%; Rango complex inh: -0.1%; GLA inh pH 4.5: -3; miR-21 reporter: x
Cc1c(S(=O)(=O)N2CCN(c3cccc(C(F)(F)F)c3)CC2)c(=O)n(C)c(=O)n1C as listed: Rango release inh: -5%; Rango complex inh: -4.0%; GLA inh pH 4.5: 3; miR-21 reporter: -2%
O=C(NC1CC1)c1cccc(NC(=O)C2CCC2)c1 as listed: Rango release inh: -2%; Rango complex inh: -1.2%; GLA inh pH 4.5: x; miR-21 reporter: x

Remaining list, next part.
Rango release inh | Rango complex inh | GLA inh pH 4.5 | miR-21 reporter | SMILES
32% | -5.1% | x | x | CCCN(CC(=O)Nc1ccc(F)c(F)c1F)C(=O)CN1C(=O)NC2(CCCCC2)C1=O
0% | -7.0% | -6 | -2% | Cc1cc(C)nc(N2CCCC(C(=O)Nc3cc(F)ccc3C)C2)n1 (stereo unspecified)
0% | 2.5% | -4 | -3% | CC(C)OP(=O)(c1ccc(N(C)C)cc1)C(O)c1cccnc1 (stereo unspecified)
-4% | -4.0% | -3 | -29% | CCCOc1ccc2c3c(c(=O)oc2c1)CCCC3
u | u | 4 | -18% | Cc1ccc(-c2c(C#N)c(N)nc3c2CCCC3)s1
2% | -4.1% | x | x | O=C(Cn1cnc2ccccc21)Nc1cccc(S(=O)(=O)N2CCCC2)c1
0% | 0.1% | x | 0% | Cc1nn(C(C)C(=O)NCc2ccc(Cl)cc2)c(=O)c2cc3occc3n12 (stereo unspecified)
12% | -2.3% | x | x | COc1ccc(C(=O)COC(=O)CNC(=O)c2ccc(Cl)cc2Cl)c(OC)c1
-15% | -2.7% | 2 | -10% | COc1cc(CNc2ccc(O)cc2)cc(Br)c1OCc1ccccc1F
-1% | -5.2% | 9 | -1% | Cc1ccc(C2N(c3ccccc3)C(=O)N3CCCN23)cc1 (stereo unspecified)
1% | -2.8% | -10 | -2% | CCCN1C(=O)C(NC(C)=O)c2ccccc21 (stereo unspecified)
1% | 0.1% | 0 | 4% | NS(=O)(=O)c1ccc(CCNC(=O)C2CCC(CNS(=O)(=O)c3ccc(Br)s3)CC2)cc1 (stereo unspecified)
-15% | -0.1% | 6 | -3% | COc1cccc(NC(=O)c2ccccc2-c2ccccc2)c1
-8% | 0.9% | -22 | 1% | CCN(C(=O)COC(=O)c1cc(NS(=O)(=O)c2ccc(Cl)c([N+](=O)[O-])c2)ccc1O)C1CCCCC1
-17% | 0.5% | 3 | -12% | O=C(c1cccnc1)n1nc(NCc2ccccc2)nc1NCc1ccccc1
-15% | -0.7% | 1 | -1% | Cc1cc(C)n2c(SCc3c(C)noc3C)nnc2n1
u | -2.6% | x | -1% | O=C(NCCCN1CCOCC1)c1ccc(/C=C2\Oc3ccccc3N(Cc3ccccc3F)C2=O)cc1
8% | -5.0% | 4 | -1% | Cc1cc(C)c(NC(=O)COC(=O)Cc2ccsc2)c(C)c1
16% | -0.9% | x | x | CC1CC(C)CN(C(=O)CNC(=O)c2sc3ccccc3c2Cl)C1 (stereo unspecified)
u | u | -6 | -2% | O=C(NCc1cccs1)N[C@@H](Cc1ccccc1)C(=O)O
0% | -2.4% | x | x | COc1ccccc1C(=O)Nc1nc(C)cc(C)n1
-1% | -0.9% | x | -1% | CCC(=O)c1ccc(OCC(O)Cn2nc(C)c(Br)c2C)cc1 (stereo unspecified)
-8% | 0.7% | x | 0% | O=C(NCc1ccco1)C1CCCN(c2nnc(-n3cccc3)s2)C1 (stereo unspecified)
0% | -1.1% | x | x | COCCN(CC(=O)Nc1cccc(C)c1C)C(=O)c1ccc(S(=O)(=O)N2CCOCC2)cc1
4% | 4.3% | x | x | Cc1nc(SCC(=O)NNC(=O)c2ccc(F)cc2)c2ccccc2n1
-5% | 1.1% | x | x | Cc1cccc(NC(=O)c2nc[nH]c2C(=O)NC2CCN(C(=O)OC(C)(C)C)CC2)c1

An excerpt, so the mix of outcomes need not match the whole.
